Assay outcomes from PubChem.
Sa ugtP lethal: compounds lethal to S. aureus RN4220 ugtP deletion mutant. AID 1259309. OD600 growth, 16 h; some inactives read as strong as hits. 0.54% of 330,000 active. growth inhibition, % (test concentration not listed);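 active = z-score under -3 and OD600 up to 0.15 on both plates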;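 also: plate controls were untreated wells for no effect and antibiotic for full effect; wells of about 80 µL received 100 nL stock; the first replicate is given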
PrP 5UTR inh: suppresses PrP 5' UTR mRNA reporter expression; 0.35% of 340,000 active; cell-based PrP 5' UTR mRNA reporter, plate reader; inhibition, % (no concentration beside the values); AID 488862;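 active = every replicate at 50% or more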;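 also: 0 = median of the neutral control wells; tested in H4 reporter cells; numbers are from one replicate; inactives centre near -14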
Sa RN4220 lethal: S. aureus RN4220 growth inhibition. AID 1259311. OD600, 16 h. inhibition, % (no concentration beside the values). 0.33% of 330,000 active;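 active = z-score of -3 or lower and OD600 up to 0.18 on both plates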;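 also: plate controls were untreated cells for no effect and reference antibiotic for full effect; stock transfer was 100 nL into about 80 µL; one replicate is shown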
BJeLR viability: BJeLR cell viability loss | BJeLR (HRASV12) viability, CellTiter-Glo ATP luminescence, 48 h; reference of the scale not given here | inhibition, % (concentration not given with the values) | 0.17% of 300,000 active | AID 1554;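 active = replicate mean above 50%; inconclusive = above 50% but judged a plate artefact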;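 also: 50 nL library stock added to about 25 µL; numbers are from one replicate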
Mtb hypoxia rep: reduces hypoxia-regulated biosensor signal in M. tuberculosis. M. tuberculosis hypoxia-regulated fluorescent reporter, fluorescence. fluorescence inhibition, % (concentration not given with the values). AID 1159583. 0.1% of 300,000 active;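 active = 35 to 45% if threefold the growth effect, above 45% if 1.5-fold the growth effect; inactive = the rest, general growth blockers included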;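 also: wells of about 50 µL received 100 nL stock; 0% = vehicle wells and 100% = reference inhibitor wells; whole bacteria with a GFP reporter of the hypoxia response; strong numbers were not always called active; many hits fall short of the cut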
Autofluor counter: compound fluorescence in toxin protease inhibitor counterscreen; compound autofluorescence counterscreen, microsphere flow cytometry; hits give high values; fluorescence intensity (test concentration not listed); 3.1% of 360,000 active; AID 624483;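 active = at least 3 SD above the mean of all compounds, about 16000 in these data; inconclusive = too few beads counted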;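 also: 100 nL of 1 mM stock went into each well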
Mtb hypoxia rep growth: recorded beside Mtb hypoxia rep, whose call it bears; growth inhibition, %; measured here: M. tuberculosis growth (absorbance);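 0% = vehicle and 100% = reference antibiotic; read after six days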
Starred values were filed as active, the others as inactive; ? = inconclusive; . = no result given; & = joins results of further samples.

Molecule	Sa ugtP lethal	PrP 5UTR inh	Sa RN4220 lethal	BJeLR viability	Mtb hypoxia rep	Mtb hypoxia rep growth	Autofluor counter
COc1cc(OC)cc(C(=O)NC(=S)Nc2ccc3oc(=O)ccc3c2)c1	-1	-4	4.1	-1	-5	2	5399
O=C(NCCCCCNC(=O)c1ccccn1)c1ccccn1	5	-6	3.3	2	8	6	3967
O=C(CNC(=O)c1ccc(F)cc1)NCc1ccccn1	1	-14	2.0	.	-7	0	3840
COc1cccc(NC(=O)c2oc3ccccc3c2NC(C)=O)c1	-1	-33	3.0	0	6	-3	7481
COc1ccc(N(CC(=O)NCc2ccco2)S(C)(=O)=O)c(OC)c1	8	2	4.9	-2	6	0	4049
Cc1ccc(S(=O)(=O)NC(CC(C)C)C(=O)Nc2nccs2)cc1 (centres undefined)	0	-11	3.6	0	.	.	2402
CCN(CC)CCCN=C1N[C@@H](c2ccccc2)C(C(=O)OC)=C(C)N1CC	.	-22	.	5	.	.	4299
CCN1CCN(C(=O)CN2C(=O)c3ccccc3S2(=O)=O)CC1	1	-16	-2.8	6	-7	0	5231
COc1ccnc(Oc2ccc(F)cc2)c1C(=O)N/C=N/OCc1ccccc1	-2	-5	2.4	9	-4	9	4516
CSc1cccc(N2CC(C(=O)N(Cc3nnc(-c4ccccc4Cl)o3)C3CC3)CC2=O)c1 (centres undefined)	5	-1	4.2	-3	5	-3	4547
Cc1cccnc1Nc1nc(-c2ccccn2)cs1	99*	-28	98*	53*	.	.	3055
COc1ccccc1CN1CC(C(=O)N(C)Cc2ccc(C)o2)CCC1=O (centres undefined)	3	-25	1.5	-1	14	7	5346
CCOc1cccc(C(=O)NC2=NCCS2)c1	3	-50	-0.2	5	11	-5	4129
CCC(=O)Nc1ccc(C(=O)NNC(=O)c2ccc(Cl)cc2)cc1	6	7	1.8	-11	10	1	3466
Nc1ncnc2nc(SCCc3ccccc3)[nH]c12	0	7	0.6	-3	-6	-5	5757
O=C(NCCc1ccccc1)c1nccc2ccccc12	1	-44	6.6	0	22	12	4120
O=C1CC(c2ccccc2)CC(=O)C1CS(=O)(=O)c1ccccc1 (centres undefined)	6	-3	4.5	-5	6	-2	4921
COc1ccc(Nc2ncnc3nc[nH]c23)cc1OC	-13	-9	10	12	-7	-3	4353
COc1cc(OC)nc(Oc2cc(/C=N/O)ccc2OC)n1	.	-19	.	-4	.	.	2047
Cc1[nH]c2ccccc2c1C(=O)C(=O)NCCc1c[nH]c2ccccc12	6	-10	-8.5	-3	-1	-3	4496
O=C1/C(=C/c2cccc(Br)c2)SC(=S)N1N=Cc1cc([N+](=O)[O-])ccc1O	30	.	50	.	12	1	.
O=C(CCc1ccccc1)Nc1nn[nH]n1	1	-12	4.4	7	7	2	2561
COc1cc(CC(=O)N2CCC(n3nccc3NC(=O)C3CC3)CC2)cc(OC)c1OC	2	-12	-0.3	2	3	4	5834
Cc1ccc(S(=O)(=O)N2[C@@H](c3ccc(Cl)cc3)C(C(=O)O)=C[C@H]2CC2CCCC2)cc1	-8	-14	18	.	-3	5	2961
CN(N=Cc1ccc2c(c1)OCO2)c1ccccc1	-6	.	4.7	.	1	13	.
O=S(=O)(c1ccc2oc3ccccc3c2c1)N1CCOCC1	-4	-34	1.9	4	5	-2	16805*
COCCNC(=O)c1cc2cc(Br)cc(Br)c2oc1=O	0	-81	0.0	12	5	0	4462
COC(=O)c1[nH]c2cccc(OC)c2c1NC(=O)CCN1CCSCC1	5	-11	3.2	12	0	8	5962
O=C(C/C=N\OCc1ccc([N+](=O)[O-])cc1)Nc1ccc(F)cc1F	.	-10	.	-9	.	.	4023
CCNc1nc(SC(C)C(=O)Nc2ccccc2)nc(N2CCOCC2)n1 (centres undefined)	6	1	1.7	-11	.	.	2975
Cc1ccc(/C=N/NC(=O)COc2ccccc2-c2ccccc2)cc1	.	70*	.	40	.	.	2062
O=S(=O)(c1ccc(-c2ccccn2)s1)N1CCC2(CC1)OCCO2	5	.	0.1	-16	6	-5	4421
Nc1ccc2c(C(F)(F)F)cc(C(F)(F)F)nc2n1	-4	-27	6.2	-1	11	8	3366
CCOC1OC(C(=O)NCc2ccccc2)=CC(c2cn(C(C)=O)c3ccccc23)C1CCCO (centres undefined)	3&-8	.	5.9&4.3	.	0&4	5&9	.
Cc1ccc(C=NNC(=O)C(C)Oc2ccccc2[N+](=O)[O-])s1 (centres undefined)	4	.	6.9	.	6	4	.
COc1ccccc1Nc1nc(NCCCN(C)C)nc(N)c1[N+](=O)[O-]	6	-7	-1.5	-4	15	3	6395
CCOC(=O)Cc1csc(SCC(=O)Nc2oc(C)c3c(C)n[nH]c(=O)c23)n1	14	4	7.1	.	4	0	2874
COc1cccc(CNc2ccc(S(N)(=O)=O)cc2)c1OC	5	9	1.6	-4	-3	1	10239
O=C(c1ccccc1)c1ccc(N2CCOCC2)c(NC(=O)c2ccco2)c1	-11	-9	-0.1	3	-4	3	8729
O=C(NCc1ccccc1)c1ccc(CNc2c(N3CCCC3)c(=O)c2=O)cc1	2	-5	0.1	9	3	6	3564
CC1CCN(c2ccc(C=O)o2)CC1	.	-16	.	-6	.	.	4292
COc1ccc(C2NCCc3c2[nH]c2ccccc32)cc1CN1CCc2cc(OC)c(OC)cc2C1C (centres undefined)	1	-22	1.5	8	24	33	4935
CC(C)(C)c1nc(SCC(=O)Nc2ccc3c(c2)OCCO3)c2ccccc2n1	9	-12	-0.6	-2	13	3	6119
Cc1ccc2oc(=O)c3cc(C(=O)NCCCN4CCN(C)CC4)sc3c2c1	9	-10	-0.1	2	8	5	5515
CN1OC(COC(=O)c2ccc(Cl)cc2)CC1c1ccccc1 (centres undefined)	2	0	-1.5	-8	-6	1	10512
NC(=O)c1ccccc1NC(=O)c1ccccc1Cl	5	-13	1.5	1	5	10	3591
CCCCc1ccc(S(N)(=O)=O)cc1	3	-10	5.0	-2	5	5	2003
CS(=O)(=O)N(CC(=O)Nc1ccc(S(=O)(=O)N2CCCC2)cc1)c1ccccc1	8	-3	4.6	4	-6	-2	3687
CCOC(=O)COc1ccc(C(=O)Nc2cccc(Cl)c2C)cc1	2	-21	2.2	-11	15	12	4354
O=C(Cn1cnc([N+](=O)[O-])n1)c1ccc(O)c(O)c1	16	-22	0.5	-6	3	5	4027
O=C(Nc1ccc(S(=O)(=O)N2CCOCC2)cc1)C1COc2ccccc2O1 (centres undefined)	-14	-20	1.8	1	9	9	9097
CCCN(C(=O)c1cc(CC)c(C)s1)c1c(N)n(Cc2ccccc2)c(=O)[nH]c1=O	0	-22	-2.2	-1	-4	-5	?
Cc1ccc(OCCCCN2CCCCC2)c(C)c1	12	-5	5.0	0	10	3	3250
C/C(=N\NC(=O)c1ccc(Cl)c(Cl)c1)c1ccccn1	.	28	.	39	.	.	3592
CCc1ccc(OCC(=O)NNC(=O)CSc2nnc(-c3ccc(C)cc3)n2C)cc1	2	-18	7.0	-6	1	1	2501
N#Cc1c(NC(=O)c2ccc(-c3ccccc3[N+](=O)[O-])o2)sc2c1CCCC2	7	-20	6.1	-11	.	.	3604
Cc1ccc(S(=O)(=O)N2C[C@@H]3[C@H]4CC[C@H](C4)[C@@H]3[C@@H](C)[C@@H]2C2CCCCC2=O)cc1 (some centres undefined)	8	24	3.4	.	-21	-3	2958
Cc1ccc(-c2[nH]ncc2C=Nn2c(C)nc3ccccc3c2=O)cc1	-5	.	0.4	.	3	0	.
NC(=S)NN=Cc1cccc(C=NNC(N)=S)c1	11	.	1.6	.	.	.	.
O=C(NCc1ccccn1)C(=O)N/N=C/c1ccc2c(c1)OCO2	.	-32	.	12	.	.	4531

(next part)
Molecule	Sa ugtP lethal	PrP 5UTR inh	Sa RN4220 lethal	BJeLR viability	Mtb hypoxia rep	Mtb hypoxia rep growth	Autofluor counter
CCOc1ccc(CN(C)C(C)C(=O)NCc2ccccc2)cc1 (centres undefined)	14	-27	4.4	-1	11	8	3678
O=C(C(=O)N1CCCC1)c1c[nH]c2ccccc12	3	-16	2.8	-13	5	-1	3632
COc1cccc(NCc2cc(=O)oc3cc(-c4ccccc4)c(O)cc23)c1	.	-27	.	-4	.	.	2383
O=C(NCCSc1ccccc1)c1ccc(Br)cc1	5	-89	-5.1	0	21	-1	2070
CCc1ccccc1NC(=S)N1CCNC(=O)C1CC(=O)OC (centres undefined)	3	-25	2.3	-3	-1	2	3764
COc1ccc2[nH]c(C(=O)O)c(NS(=O)(=O)c3ccc(F)cc3)c2c1	1	-29	1.8	9	6	4	4838
Cc1cc(C(=O)COC(=O)c2n[nH]c(=O)c3ccccc23)c(C)n1C	-3	-39	1.6	.	1	-3	.
CCCNC(=O)NC(=O)CSc1nnc(-c2ccncc2)n1CC	2	-25	6.9	14	0	5	10749
Cc1cc(N)ccc1N1CCCC1	.	-19	.	-11	.	.	1599
O=C(Cc1csc(N2CCOCC2)n1)N/N=C/c1ccc(Cl)cc1Cl	.	-9	.	-8	.	.	9821
O=C(Cc1ccc(Cl)cc1)Nc1cccc(C(=O)Nc2ccccc2C(=O)O)c1	-8	-13	5.0	2	0	-1	3839
Cc1ccc2nc(-c3cccnc3)cc(C(=O)Nc3ccc(F)cc3C)c2c1	-1	0	-0.3	-6	5	-2	4335
COC(=O)C(NC(=O)c1ccccc1C(=O)O)c1ccc2ccccc2c1 (centres undefined)	-3	-29	-1.2	6	-8	18	3534
COc1ccc(NC(=O)c2cc(-c3ccc(C)o3)nc3ccccc23)cc1OC	-2	-14	4.8	.	.	.	3640
Cc1cc(NC(=O)CSc2nnc(-c3ccncc3)n2C)n(-c2ccccc2)n1	-1	-12	4.8	-3	10	2	7628
Cc1cc2[nH]ncc2cc1NC(N)=S	-4	9	0.4	-3	0	12	4498
CN(C)S(=O)(=O)c1cccc(C(=O)NCC(=O)NC2CCN(Cc3ccccc3)CC2)c1	8	0	-1.9	3	4	-12	5352
COc1ccc2nc(NC(=O)C3CCN(C(=O)c4ccc(F)cc4)CC3)sc2c1	-4	0	-0.4	9	10	-4	6922
COc1cc(NC(=S)N(C)C)c(OC)cc1Cl	-3	-19	-2.8	-5	-4	13	5627
CC(C)CSc1nc(N2CCOCC2)c2c(c1C#N)CC(C)(C)SC2	58	-11	0.2	.	.	.	3686
CCc1ccc(N2CC(C(=O)NC3CCCCC3C)CC2=O)cc1 (centres undefined)	6	-5	-1.1	16	-8	8	4021
CCOc1ccc(N2C(=O)C(Cl)=C(Nc3ccccc3O)C2=O)cc1	6	-26	4.0	3	14	11	8673
N#CCCn1cc(C(=O)Nc2ccc([N+](=O)[O-])cc2)c(-c2ccc3c(c2)OCCO3)n1	10	-9	4.9	10	13	13	2679
NC(=O)C1(S(=O)(=O)c2ccccc2)CCCCC1	-5	-9	1.9	-5	.	.	4251
CCn1c(SCC(=O)NC(C)C)nnc1-c1cccs1	.	-25	.	1	.	.	2506
Cc1cc(OCc2cc(C(=O)N(C)CCOc3ccccc3)no2)cc(C)c1Cl	-7	-4	-4.6	0	8	2	4682
Cc1cccc(C(C)C)c1NC(=O)COC(=O)CNS(=O)(=O)c1ccccc1	3	3	5.0	-4	8	-4	?
CCN(CC(=O)NC(=O)NCc1ccccc1)Cc1nc2ccccc2c(=O)[nH]1	2	-19	1.1	4	-2	21	4789
Cc1cc(C)cc(NC(=S)NCc2ccc(F)cc2)c1	-3	-22	0.1	1	5	11	2081
Cc1ccc(-n2cc(CN3CCN(Cc4nccn4C)CC3)c(-c3cccc(C)c3)n2)cc1	1	0	3.8	8	14	21	4935
CCN(C(=O)Cn1cnc2ccccc2c1=O)C1CCS(=O)(=O)C1 (centres undefined)	14	-32	1.0	-1	6	-1	5787
CC1CCCC(=NNC(=O)c2ccncc2)C1 (centres undefined)	2	.	1.6	.	.	.	.
